Compound activity (PubChem BioAssay)
2A StopGo = lowers the luciferase signal of an FMDV 2A StopGo reporter; 1.2% of 410,000 active; human cells with a luciferase reporter of 2A StopGo recoding; control for the full effect not named in the record; Potency, µM (top dose mostly 57.9 µM), for the others: at the highest dose signal change, negative = less light; active = well fitted falling curve with a large enough effect; inconclusive = small, poorly fitted or top-dose-only effect; inactive = no such curve, though single readings can be large or run the other way; tested in HEK293T cells; further: on the % scale 0 is the no-effect control and ±100 the full control effect; nearly all actives have a fitted effect of over 45% in size; luciferase light after 4 h
Lassa entry inh = Lassa virus entry inhibition | Potency, µM (titrated, usually from 37.9 µM), inactives show at the top dose activity change, negative = inhibition, actives largely listed as inhibitors | 1.2% of 300,000 active | AID 540256 | Lassa virus pseudotype entry inhibition, cell reporter; control for the full effect not named in the record; active means well fitted inhibition curve with a large enough effect; inconclusive means small, poorly fitted or top-dose-only effect, or effect the other way; inactive means flat fitted curve, though single readings scatter; tested in HEK293 cells; further: on the % scale 0 is the no-effect control and ±100 the full control effect; nearly all actives have a fitted effect of over 50% in size; luciferase read-out
SARS PLP yeast = blocks SARS-CoV papain-like protease in a yeast assay; Potency, µM (highest dose often 32.9 µM), inactives show at the highest dose activity, positive = growth rescue; S. cerevisiae expressing SARS-CoV PLpro, growth rescue; control for the full effect not named in the record; 0.19% of 330,000 active; further: 0% is about no effect; nearly all actives have a fitted effect of over 55% in size; growth read by luminescence after 48 h
Marburg entry inh = inhibitors of Marburg virus binding or cell entry; Marburg virus pseudotyped entry inhibition, cell reporter; control for the full effect not named in the record; about a third of the inactives were read at about 46 µM; Potency, µM (doses to about 37.8 µM), without a hit: top-dose activity change, negative = inhibition, most hits filed as inhibitors; 1.8% of 300,000 active; AID 540276; active = well fitted inhibition curve with a large enough effect; inconclusive = small, poorly fitted or top-dose-only effect, or effect the other way; inactive = flat fitted curve, though single readings scatter; tested in HEK293 cells; about a fifth of its hits are not listed in these tables; further: on the % scale 0 is the no-effect control and ±100 the full control effect; luciferase read-out
Cruzain inh Det = blocks cruzain activity in presence of Triton detergent. Potency, µM, inactives show max response, negative = inhibition, most hits filed as inhibitors. purified cruzain, Z-FR-AMC fluorescence, 0.01% Triton. 0.43% of 200,000 active. AID 1478; active means well fitted curve in the direction sought with a large enough effect; inconclusive means small, poorly fitted or top-dose-only effect, or another doubt; inactive means no such curve, though single readings can be large; an effect the other way counts as inactive or inconclusive;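 further: plate controls were neutral wells for no effect and buffer without enzyme for full effect; nearly all actives have a fitted effect of over 40% in size; top concentration of the series not given in the record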
Target sequence (P25779 123-467 limits assumed): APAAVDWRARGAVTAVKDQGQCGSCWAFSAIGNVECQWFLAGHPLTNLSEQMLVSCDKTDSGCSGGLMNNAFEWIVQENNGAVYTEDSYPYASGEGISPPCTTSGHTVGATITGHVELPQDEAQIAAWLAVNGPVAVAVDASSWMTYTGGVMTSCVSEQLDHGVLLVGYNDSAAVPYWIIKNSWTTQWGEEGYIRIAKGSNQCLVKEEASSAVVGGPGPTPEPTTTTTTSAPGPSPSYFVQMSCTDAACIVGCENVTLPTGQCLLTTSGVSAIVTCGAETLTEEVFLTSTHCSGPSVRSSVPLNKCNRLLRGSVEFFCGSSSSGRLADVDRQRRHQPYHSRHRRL
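Read-out: AMC fluorescence (360 nm excitation, 450 nm emission), four reads over 2 min, first-to-third difference used. Conditions: cruzain 1.5 nM, Z-FR-AMC 2 uM, pH 5.5 acetate, 5 mM DTT, 0.01% Triton X-100.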
NS1 inh = influenza NS1 inhibition. Potency, µM (highest dose often 46.1 µM), for inactives: at the top dose activity, positive = more growth. S. cerevisiae slowed by influenza A NS1, growth recovery by OD600. 0.4% of 270,000 active. AID 2326; further: actives are rising curves; nearly all actives have a fitted effect of over 50% in size
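S. cerevisiae expressing influenza A NS1, grown in glucose, washed, then diluted 1:100 into pH 6.0 -URA galactose medium with 23 nl compound. Growth recovery read as OD600; NS1-free strain serves as control.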
RE007 growth inh = less growth of the S. pombe RE007 Vpr strain; S. pombe RE007 Vpr strain, BacTiter-Glo ATP luminescence, 24 h; control for the full effect not named in the record; Potency, µM (highest dose often 92.2 µM), for the others: at the top dose activity change, negative = less growth; 0.21% of 360,000 active; active = well fitted falling curve with a large enough effect; inconclusive = small, poorly fitted or top-dose-only effect; inactive = no such curve, though single readings can be large or run the other way;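 further: on the % scale 0 is the no-effect control and ±100 the full control effect; nearly all actives have a fitted effect of over 50% in size; the assay follows cell death caused by Vpr and the record does not say whether a fall means rescue or toxicity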
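Fission yeast RE007 carrying one integrated HIV-1 vpr copy, seeded at OD 0.01 in PMG+AL medium with 23 nL pinned compound. Grown 24 h at 30 degrees; viability read by BacTiter-Glo luminescence after 5 min.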
Cruzain inh noDet = blocks cruzain activity in detergent-free assay; P25779; purified cruzain, Z-FR-AMC fluorescence, no detergent; Potency, µM, for inactives: max response, negative = inhibition, hits mostly inhibitors; 2.3% of 200,000 active; active means well fitted curve in the direction sought with a large enough effect; inconclusive means small, poorly fitted or top-dose-only effect, or another doubt; inactive means no such curve, though single readings can be large; an effect the other way counts as inactive or inconclusive;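 further: plate controls were enzyme without inhibitor for no effect and buffer without enzyme for full effect; nearly all actives have a fitted effect of over 40% in size; top concentration of the series not given in the record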
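Purified cruzain at 1.5 nM, pre-incubated 15 min with compound at room temperature in 100 mM sodium acetate pH 5.5, 5 mM DTT, 0.00005% Triton X-100. Reaction started with 2 uM Z-FR-AMC; AMC fluorescence increase over 60 s gives rate.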
Numbers without * were called inactive; ? = inconclusive; nt = no result given; & = joins results of further samples; [ ] = another dose, or the depositor's remark. Unless noted, the call rests on the fitted dose curve; in most records, active means well fitted rising curve with a large enough effect; inconclusive means small, poorly fitted or top-dose-only effect; inactive means no such curve, though single readings can be large or run the other way. Potency means the concentration at half of the fitted maximal effect.

SMILES	2A StopGo	Lassa entry inh	SARS PLP yeast	Marburg entry inh	Cruzain inh Det	NS1 inh	RE007 growth inh	Cruzain inh noDet
CCN(CC)CCN(Cc1cc2cc3c(cc2[nH]c1=O)OCO3)C(=S)NCC1CCCO1 (centres undefined)	-6%	2%	1%	2%[46.1 µM]	nt	-4%	4%	nt
CCOC(=O)c1sc(Nc2nc3c(OC)cccc3s2)nc1C	nt	nt	-3%	-5%	1.9%	-8%	nt	?
Cc1ccc(C(=O)N2c3ccccc3N(Cc3ccccc3)C(=O)C2(C)C)cc1	nt	?	-36%	?	3.2%	-75%	8%	-3%
O=C(N[C@@H](Cc1ccccc1)C(=O)NC1CCCCC1)c1ccco1	9%	8%	13%	4%	2.9%	10%	17%	-4%
CC(C)(C)NS(=O)(=O)c1ccc(CCC(=O)N2CCCC2)cc1	4%	21%[46.1 µM]	1%	-2%[46.1 µM]	nt	-1%	-4%	nt
Cc1ccc(S(=O)(=O)NCCCCCC(=O)NC(C)(C)CO)cc1	-11%	-4%	-6%	2%	6.6%	0%	2%	9%
CCN1CCN(c2oc(-c3ccccc3C)nc2S(=O)(=O)c2ccccc2)CC1	6%	1%	3%	?	nt	nt	-8%	nt
Cc1ccc(C(=O)O)cc1Nc1ncnc2sc3c(c12)CCC3	-12%	nt	0%	nt	nt	6%	11%	nt
CCN1CCN(S(=O)(=O)c2ccc(Cl)c(C(=O)Nc3cc(Cl)ccc3N3CCOCC3)c2)CC1	43%[activator]	?	-5%	?	nt	-6%	-4%	nt
O=C(C1CCC1)N1CCCc2cc(S(=O)(=O)N3CCN(c4cccc(Cl)c4)CC3)ccc21	-28%	?	nt	nt	-1.6%	nt	nt	0%
COC(=O)/C=C/c1sc2nc(C)cc(C)c2c1N=CN(C)C	5%	3%	0%	?	nt	-6%	-24%	nt
CS(=O)(=O)N(CCc1ccccc1)CC(=O)N1CCN(Cc2ccc3c(c2)OCO3)CC1	-8%	?	nt	-24%&-24%	4.7%	-2%	-7%	3%
Cc1ccc(-n2nc(CO)c(C(=O)NCc3ccccn3)n2)cc1	-8%	-11%[46.1 µM]	nt	6%[46.1 µM]	-1.3%	nt	nt	11%
Cc1cc(C)nc(NS(=O)(=O)c2ccc(NC(=O)c3ccc(O)cc3O)cc2)n1	71%[activator]	?	2%	?	nt	6%	-16%	nt
COCC1CCN(Cc2nc(Cc3ccccc3Cl)no2)CC1	16%	4%	-2%	?	nt	0%	-2%	nt
C=CCn1c(N)cc(=O)nc1SCC(=O)Nc1ccccc1	10%	8%	-3%	20%	-9.6%	-1%	-1%	-17%
O=P(CCCCCCCCCP(=O)(c1ccccc1)c1ccccc1)(c1ccccc1)c1ccccc1	?	?	-17%	?	-9.5%	-83%	32%	?
O=C(CSc1nnc(-c2ccccc2)n1CC1CCCO1)N1CCCC1 (centres undefined)	5%	12%	13%	3%[46.1 µM]	nt	3%	3%	nt
O=C(NC1CCN(C(=O)N2c3ccccc3Sc3ccccc32)CC1)c1ccco1	-14%	?	-7%	?	-4.0%	-56%	-10%	?
COc1ccc(NC(=O)Nc2ccc(C)cc2Br)c(OC)c1	32%	3%	-1%	-5%	nt	-3%	6%	nt
Cn1cc(-c2cc3n(n2)CCC(=O)N3CCCC(=O)NCc2ccc(F)cc2)c2ccccc21	-19%	?	nt	nt	-3.7%	nt	nt	?
CCOC(=O)c1ccc2c(c1)nc(SCC(=O)c1cc3ccccc3o1)n2CC	17%	-7%	5%	?	-3.6%	7%	-7%	4%
CC(=O)c1ccc2cccc3c2c1N=CN3C	nt	-1%	3%	5%	-3.2%	-5%	-10%	-2%
Cc1ccc(N2CC(NC(=O)CCc3ccccc3)CC2=O)cc1 (centres undefined)	-6%	17%[46.1 µM]	nt	nt	0.2%	nt	nt	-3%
Cc1ccccc1C(=O)NC(=S)Nc1sc2c(c1C#N)CCCC2	0%	4%	-6%	19%	-3.5%	?	-6%	?
CCOC(=O)c1sc(=S)n(-c2ccccc2Cl)c1C	4%	1%[46.1 µM]	-2%	?	nt	-9%	10%	nt
COc1ccc(OC)c(CN(CCN2CCOCC2)S(=O)(=O)c2ccc(NC(C)=O)cc2)c1	-1%	nt	-1%	nt	nt	3%	-6%	nt
O=C(COc1cccc(F)c1)NNC(=O)c1cccc(-n2cccc2)c1	-1%	7%	2%	-5%[46.1 µM]	nt	nt	-18%	nt
O=C(Cn1nnc2ccccc2c1=O)NCCc1ccc(F)cc1	nt	-1%	8%	3%	3.4%	26%	nt	-2%
CCN(C(=O)CSc1nc2nc(C)cc(C)n2n1)C1CCS(=O)(=O)C1 (centres undefined)	-7%	0%	-2%	13%	nt	nt	2%	nt
CCOC(=O)c1nc(Nc2ccc(N3CCC(C)CC3)cc2)c2ccccc2n1	0%	nt	-1%	nt	nt	-9%	-18%	nt
CCOC(=O)CNC(=O)N(CCOC)CC1CCCN(C2Cc3ccccc3C2)C1 (centres undefined)	-24%	nt	-1%	nt	nt	11%	3%	nt
COc1ccc(OCC(O)CN(CCO)CC(O)Cn2ccc3ccccc32)cc1 (centres undefined)	-26%	?	-9%	?	1.5%	-3%	14%	3%
O=C(NCc1cccnc1)c1noc2c1CCCCC2	22%	24%	-3%	27%	4.6%	-8%	15%	-12%
Cc1ccc(C(=O)N(NC2=NS(=O)(=O)c3ccccc32)S(=O)(=O)c2ccc(C)cc2)cc1	-8%	?	-2%	?	-6.5%	1%	12%	6%
Cc1ccc(C(O)c2nc3ccccc3n2C(C)C)cc1 (centres undefined)	?	-14%	-1%	?	4.1%	-46%	0%	-12%
Cc1cc(=O)c2c(C)nn(-c3ccccc3)c2[nH]1	-7%	-7%	2%	?	2.5%	10%	-11%	-1%
Cc1nn(C)cc1NC(=O)c1ccc(Br)o1	4%	0%	-23%	-28%	-1.6%	-5%	3%	-6%
CC1CC(C)CN(S(=O)(=O)c2ccc(C(=O)Nc3nnc(C4CC4)o3)cc2)C1 (centres undefined)	30%[activator]	nt	-1%	nt	nt	4%	12%	nt
COCCNS(=O)(=O)c1ccc(-c2ccc(C)cc2)cc1	4%	?	-4%	-1%	1.0%	8%	-13%	8%
CCN(C(=O)CSc1nnc(-c2ccc(F)cc2)n1C)C1CCS(=O)(=O)C1 (centres undefined)	0%	-24%[46.1 µM]	-4%	8%[46.1 µM]	nt	nt	-10%	nt
O=C(Nc1ccc(F)cc1F)c1cccnc1	8%	1%	7%	0%[46.1 µM]	2.4%	-13%	-9%	-2%
CCCCNC(=O)CSc1nc2ccccc2c(=O)n1CCNC(C)=O	-11%	-6%	-7%	?	-1.9%	1%	0%[3.69 µM]	-3%
Cc1cccc(C(CC(=O)N2CCCCC2)c2ccccc2)c1O (centres undefined)	24%	3%[46.1 µM]	1%	0%[46.1 µM]	nt	-13%	16%	nt
CCN(CC)c1nc(-c2ccccc2)ncc1S(=O)(=O)c1ccc(C)cc1	-9%	nt	-5%	nt	nt	0%	-7%	nt
COc1ccccc1-c1cc2nc(C)c(CCC(=O)O)c(C)n2n1	?	?	nt	?	-3.4%	nt	nt	-7%
c1ccc(-c2ncc3c(ccc4ccccc43)n2)cc1	-60%	3.5µM*	-21%	?	-4.4%	0%	-9%	?
COc1ccc(CCNC(=O)CCCn2c(SCC#N)nc3ccccc3c2=O)cc1OC	-22%	-9%	4%	-5%&-5%	1.7%	-20%	-24%	26%
C/C(=N/N1CCN(c2ccccn2)CC1)c1ccc([N+](=O)[O-])cc1	-6%	-7%	-1%	?	-0.6%	9%	-7%	0%
CCOc1ccccc1CNS(=O)(=O)c1cc(-c2cc(C)no2)ccc1OC	9%	nt	?	nt	nt	-4%	-7%	nt
COc1ccc(C(C(=O)NCC2CCCO2)N(C(=O)CNC(=O)c2ccco2)c2cc(C)cc(C)c2)cc1OC (centres undefined)	-7%	1%	5%	12%[46.1 µM]	nt	13%	-4%	nt
O=C(CNC(=O)c1cc2ccccc2o1)NCc1cccs1	25%	?	5%	?	-1.7%	9%	0%	-24%
Cc1ccc(C(=O)NC2CC(C)(C)NC(C)(C)C2)c(C)c1	-12%	-11%	-1%	6%	0.7%	4%	-13%	4%
Cc1cc(NC(=O)CN2CCN(c3ncccn3)CC2)no1	nt	13%	-7%	2%	3.1%	0%	0%	0%
COc1ccc(N2CCN(CC(O)COc3ccc(F)cc3)CC2)cc1 (centres undefined)	-21%	nt	-1%	nt	nt	0%	0%	nt
CCn1cc(C(=O)Nc2ccc(-n3cnnn3)c(OC)c2)c(=O)c2ccc(C)nc21	nt	nt	-5%	nt	1.7%	9%	nt	1%
Cc1cc(/C=c2/sc3nc4ccccc4n3c2=O)c(C)n1-c1ccccn1	0.032µM*	0.21µM*	1%	?	-5.2%	12%	6%	-7%
CCOc1ccc(OCC)c(-c2c(=O)n(OCc3ccccc3C(=O)OC)c3ccccc3[n+]2[O-])c1	-13%	-18%	-1%	-13%	-1.0%	21%	-8%	?
O=C(CSc1ccc(-c2ccco2)nn1)NC1CCCCC1	1%	0%	-2%	3%[46.1 µM]	nt	nt	0%	nt
COc1cc(/C=N/Nc2ccc(C(=O)O)cc2)cc(OC)c1OC	13%	nt	0%	nt	nt	10%	-14%	nt

Following part
SMILES	2A StopGo	Lassa entry inh	SARS PLP yeast	Marburg entry inh	Cruzain inh Det	NS1 inh	RE007 growth inh	Cruzain inh noDet
COc1ccc(NS(=O)(=O)c2cccc(C(=O)NCC(c3ccc(OC)cc3)N3CCOCC3)c2)cc1 (centres undefined)	1%	?	2%	?	nt	-20%	-6%	nt
CCOc1ccc(CC(=O)NCCc2csc(-c3ccc(Cl)cc3)n2)cc1	-15%	0%[46.1 µM]	nt	nt	-7.1%	nt	nt	22%
C1CCCC(N2CCNCC2)CC1	-8%	?	10%	-8%	0.2%	5%	-1%	2%
Cc1[nH]n(-c2ccccc2)c(=O)c1C(c1ccc([N+](=O)[O-])cc1)c1c(C)[nH]n(-c2ccccc2)c1=O	?	6%	-18%	?	-2.7%	4%	-4%	11%
CCN(CC(=O)Nc1c(F)cccc1F)C(=O)c1ccc(=O)[nH]c1	-5%	15%[46.1 µM]	3%	8%[46.1 µM]	nt	2%	2%	nt
